Compound activity (PubChem BioAssay)
PMP22 txn: modulates PMP22 transcription in S16 Schwann cells. S16 Pmp22-F2sN Schwann cells (luciferase reporters placed in the Pmp22 gene), FLuc/NLuc coincidence luminescence, 24 h. Potency, µM (titrated, usually from 57.5 µM), for inactives: top-dose activity change, negative = inhibition, hits mostly inhibitors. 43,000 compounds, 2% hits. AID 1508649; active = clear falling dose curves in both reporters; inconclusive = both reporters move, but less clearly or upward; inactive = either reporter flat; the % is the NLuc reporter signal; note: % is set by controls: 0 for no effect and ±100 for the full control effect; some results filed as inactive show a strong effect at the top dose
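Schwann cells carrying the coincidence reporter were exposed to library compounds for 24 h at 37C, then lysed and read for FLuc and, after quenching, NLuc luminescence on a CCD imager.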
HTT prom inh: inhibitors of huntingtin promoter activity; HEK293 HTT promoter firefly luciferase reporter (activity 0% = vehicle and -100% = no light), 24 h; AID 1508623; Potency, µM (top dose mostly 57.5 µM), inactives show at the highest dose activity change, negative = inhibition, most hits filed as inhibitors; 48,000 compounds, 0.93% hits; active = well fitted inhibition curve with a large enough effect; inconclusive = small, poorly fitted or top-dose-only effect; inactive = no such curve, though single readings can be large or run the other way; note: nearly all actives have a fitted effect of over 50% in size
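Firefly luciferase signal from promoter-reporter HEK293 cells was scaled between vehicle (0%) and zero RLU (-100%). Compounds were tested at final concentrations of up to 57.5 uM over 24 h at 37 degrees C. PTC124 at 50 uM final served as control inhibitor.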
The depositor's hits bear a star; ? = inconclusive; nt = not tested or not shown; & = joins results of further samples; [ ] = another dose, or the depositor's remark. Potency is the fitted concentration of half-maximal effect. The list is partial. The share of hits here may be higher or lower than overall.

SMILES	PMP22 txn	HTT prom inh
C=C1CC[C@@]2(O)[C@H]3Cc4ccc(O)c5c4[C@@]2(CCN3CC2CC2)[C@H]1O5	nt	-6.2%
COc1cccc2c1[C@]13CCN(CC4CC4)[C@H](C2)[C@]1(OC)CCC(=O)C3	nt	1.8%
C#CCOC(C(=O)OCCN(C)C)(c1ccccc1)c1ccccc1	nt	4.7%
C=CCN1CC[C@]23CCCC[C@H]2[C@H]1Cc1ccc(O)cc13	nt	0.3%
CC(C(O)c1ccccc1)N(C)C/C=C/c1ccccc1 (stereo not given)	nt	-7.7%
CC#C[C@]1(O)CC[C@H]2[C@@H]3C[C@H](C)C4=CC(=O)CC[C@]4(C)[C@H]3CC[C@@]21C	nt	-14.8%
FC(F)(F)c1cccc(C2=CCN(CCc3ccc4ccccc4c3)CC2)c1	nt	-4.5%
O=S1(=O)N(Cc2ccccc2)CCCN1Cc1cccc(Cl)c1	?	-21.4%
C[C@]12C/C(=C/O)C(=O)C[C@@H]1CC[C@@H]1[C@@H]2CC[C@@]2(C)[C@H]1CC[C@]2(C)O	nt	-8.4%
CN(C)C(=S)SSC(=S)N(C)C	nt	-28.3%
Nc1ccc(Cl)cc1	nt	-10.5%[116 µM]
CCOc1ccc(CN(CCc2ccc3c(c2)OCO3)Cc2cc(OC)ccc2O)cc1	-16.6%	43.9%[activator]
CCN[C@@H](C)Cc1ccccc1	nt	-4.5%[116 µM]
Cc1nnc(NC(=O)c2cccn(Cc3cccc(Cl)c3)c2=O)s1	-39.3%	27.1%
CC[N+]1(CC)CCC(OC(=O)C(O)(c2ccccc2)c2ccccc2)C1 (stereo not given)	nt	-4.7%
NC(=O)OCCCc1ccccc1	nt	-2.3%
COc1cccc2c1C(=O)c1c(O)c3c(c(O)c1C2=O)C[C@@](O)(C(=O)CO)CC3OC1CC(N2CCOC(OC)C2)C(O)C(C)O1 (stereo not given in full)	nt	-33.4%
CCOP(=S)(OCC)Oc1cc(C)nc(C(C)C)n1	nt	10.6%
O=C(O)COc1nc(Cl)c(Cl)cc1Cl	nt	9.9%[116 µM]
CC1(C)C(C=C(Cl)Cl)C1C(=O)OC(C#N)c1cccc(Oc2ccccc2)c1 (stereo not given)	nt	-2.6%
O=[N+]([O-])c1c2ccccc2cc2ccccc12	nt	27.8%[116 µM]
Cc1ccc(-n2nc(C)c3c2NC(=O)CSC3c2ccc(O)cc2)cc1Cl (stereo not given)	-77.5%	?
C[C@@H]1CN(C2CCC(C#N)(c3ccc(F)cc3)CC2)CC[C@]1(C(=O)O)c1ccccc1 (stereo not given in full)	nt	1.9%
CCCCC/C=C\C/C=C\C/C=C\C/C=C\CCCC(=O)NCC(=O)O	nt	15.0%
Cc1cccc(-c2nn3c(=O)cc(CN4CCN(C(=O)COc5ccc(Cl)cc5)CC4)nc3s2)c1	2.6%	-12.1%

(further entries)
SMILES	PMP22 txn	HTT prom inh
COc1ccc(C)cc1NC(=O)c1cccn(Cc2cccc([N+](=O)[O-])c2)c1=O	-17.9%	43.9%[activator]
CO[C@]12CC[C@@]3(C[C@@H]1[C@](C)(O)C(C)(C)C)[C@@H]1Cc4ccc(O)c5c4[C@@]3(CCN1CC1CC1)[C@H]2O5	nt	-21.2%[116 µM]
C[C@@H]1[C@H](O)[C@@H](C)C=CC=CCCC=CC=CC=CC=C[C@H](O[C@H]2O[C@@H](C)[C@H](O)[C@@H](N)[C@@H]2O)CC2O[C@](O)(C[C@@H](O)[C@H](O)CC[C@@H](O)C[C@@H](O)C[C@@H](O)CC(=O)O[C@H]1C)C[C@H](O)[C@H]2C(=O)O	nt	7.9%
CC1=NN=C(c2ccc(N)cc2)c2cc3c(cc2C1)OCO3	nt	-0.7%
CN(C)CCN(C)CCc1ccc(Cl)c(Cl)c1	nt	-12.4%
Cc1ccc(Cn2cccc(C(=O)Nc3cc(C)on3)c2=O)cc1	-21.7%	?
CCNC(=O)C[C@@H]1N=C(c2ccc(Cl)cc2)c2cc(OC)ccc2-n2c(C)nnc21	nt	-4.7%
COc1ccc(OC)c(CCNCc2c(C(=O)O)c(C)n(Cc3ccc(F)cc3Cl)c2C)c1	2.3%	-10.9%
O=C(Nc1cc(C(F)(F)F)cc(C(F)(F)F)c1)c1cccn(Cc2ccccc2Cl)c1=O	-15.8%	-16.7%
CCOc1ccc(NC(=O)Cn2cc(C(=O)c3ccccc3)c3ccccc32)cc1	-6.4%	-10.0%
O=C(O)c1nn(Cc2ccc(Cl)cc2Cl)c2ccccc12	nt	6.2%&-3.3%
Nc1nc(N)nc(NC2CC2)n1	nt	-0.2%
COc1ccc(OC)c(NC(=O)Cn2cc(C(=O)c3ccccc3F)c3ccccc32)c1	?	?
COc1ccc(NC(=O)c2sc3nc4c(cc3c2N)N2CCC4CC2)cc1OC	-52.7%	-30.4%
Cn1c(=O)n(C)c2cc(CNCCc3ccc(F)cc3)ccc21	-21.7%	-5.8%
NC(=O)CS(=O)C(c1ccccc1)c1ccccc1 (stereo not given)	nt	-0.7%
CCCCCCCCCCCCCCCC[N+](C)(C)C	nt	?
O=C1CC(c2ccc(F)cc2)c2c(c3ccccc3oc2=O)O1 (stereo not given)	-1.3%	21.5%
CCC1(c2cccc(O)c2)CCCCN(C)C1 (stereo not given)	nt	-6.9%
CCc1ccc(OCC(=O)N2CCN(CCc3ccncc3)CC2)cc1	7.1%	-7.2%
CCOCCOC(C)=O	nt	10.9%[116 µM]
Cc1cc(OCC(=O)N2CCN(CCc3ccccn3)CC2)cc(C)c1Cl	?	-13.2%
CC(O)=C(C#N)C(=O)Nc1cc(Br)ccc1Br	nt	-3.7%
CCN1CCN(C(=O)Cc2ccc(Nc3ncc(F)c(Nc4ccc(C(=O)Nc5ccccc5Cl)cc4)n3)cc2)CC1	nt	3.7%
Cn1cc(C2=C(c3cn(C4CCN(Cc5ccccn5)CC4)c4ccccc34)C(=O)NC2=O)c2ccccc21	nt	0.3%&-26.3%

Next part (2 carried over from the part before).
SMILES	PMP22 txn	HTT prom inh
CCN1CCN(C(=O)Cc2ccc(Nc3ncc(F)c(Nc4ccc(C(=O)Nc5ccccc5Cl)cc4)n3)cc2)CC1	nt	3.7%
Cn1cc(C2=C(c3cn(C4CCN(Cc5ccccn5)CC4)c4ccccc34)C(=O)NC2=O)c2ccccc21	nt	0.3%&-26.3%
O=C1CN2CCOC2(c2ccccc2Cl)c2cc(Cl)ccc2N1 (stereo not given)	nt	-9.5%
O=C(COc1ccc(Cl)cc1)Nc1ccc(Cl)cc1C(=O)c1ccccc1	2.7%	2.1%
C[C@]12CC[C@H]3[C@@H](CCC4=CC(=O)CC[C@@]43C)[C@H]1CC[C@H]2O	nt	-5.5%
N#Cc1cc2c(nc1SCC(=O)Nc1ccc(C(F)(F)F)cc1)C1CCN2CC1	?	14.1µM*
Cc1ccccc1-n1c(Cn2cnc3c(N)ncnc32)nc2cccc(C)c2c1=O	nt	?
Cc1cccc(Cn2cccc(C(=O)Nc3nnc(C)s3)c2=O)c1	-14.5%	-1.1%
COc1ccc(NC(=O)CN2C(=O)C(C)N=C(c3ccccc3F)c3cc(Cl)ccc32)c(OC)c1 (stereo not given)	19.9%	?
Cc1cccc(Cn2cccc(C(=O)Nc3ccc4c(c3)OCCO4)c2=O)c1	-21.9%	0.0%
O=C(CCCN1CCC(n2c(=O)[nH]c3ccccc32)CC1)c1ccc(F)cc1	nt	-4.7%
N#Cc1nn(-c2c(Cl)cc(C(F)(F)F)cc2Cl)c(N)c1S(=O)C(F)(F)F (stereo not given)	nt	?
CN1CC[C@]23c4c5ccc(O)c4O[C@H]2[C@@H](O)C=C[C@H]3[C@H]1C5	nt	-6.7%[116 µM]
c1ccc2c(c1)OCC(C1=NCCN1)O2 (stereo not given)	nt	?
NCCc1ccc(O)cc1	nt	8.9%
CSCC[C@@H](NC(=O)[C@@H](Cc1ccccc1)NC(=O)CNC(=O)CNC(=O)[C@@H](N)Cc1ccc(O)cc1)C(=O)O	nt	7.0%
COc1cc(N)c(Cl)cc1C(=O)NC1CN2CCC1CC2 (stereo not given)	nt	3.8%
Cc1ccccc1-n1c(/C=C/c2ccccc2F)nc2ccccc2c1=O	?	?
C1=C2CCCN[C@H]2[C@@H]2C[C@H]1[C@@H]1CCCCN1C2	nt	3.1%
CC1COC2(c3ccccc3Cl)c3cc(Cl)ccc3NC(=O)CN12 (stereo not given)	nt	-9.4%
COc1cc(CC#N)cc(OC)c1OC	nt	14.7%
CC(=O)[C@H]1CC[C@H]2[C@@H]3CC[C@H]4C[C@H](O)CC[C@]4(C)[C@H]3C(=O)C[C@]12C	nt	-5.0%
Cc1ccc(OCC(=O)N2CCN(CCc3ccncc3)CC2)cc1	-44.5%	6.2%
CCCCCCCCCC(=O)O[C@H]1CC[C@H]2[C@@H]3CCC4=CC(=O)CC[C@@H]4[C@H]3CC[C@]12C	nt	10.3%
Nc1ccc([N+](=O)[O-])cc1	nt	-18.2%[116 µM]
CC[C@H]1C[C@H]2[C@@H]3CCC4=CC(=O)CC[C@@H]4[C@H]3CC[C@]2(C)[C@H]1O	nt	-6.9%
CCCCC1C(=O)NC(=O)N(C2CCCCC2)C1=O (stereo not given)	nt	-5.7%

Fetched by compound from the list above (7):
SMILES	PMP22 txn	HTT prom inh
CC[C@H]1C[C@H]2[C@@H]3CCC4=CC(=O)CC[C@@H]4[C@H]3CC[C@]2(C)[C@H]1O	nt	-6.9%
CCCCC1C(=O)NC(=O)N(C2CCCCC2)C1=O (stereo not given)	nt	-5.7%
Cc1ccc(OCC(=O)N2CCN(CCc3ccncc3)CC2)cc1	-44.5%	6.2%
c1ccc2c(c1)OCC(C1=NCCN1)O2 (stereo not given)	nt	?
O=C(COc1ccc(Cl)cc1)Nc1ccc(Cl)cc1C(=O)c1ccccc1	2.7%	2.1%
COc1ccc(NC(=O)CN2C(=O)C(C)N=C(c3ccccc3F)c3cc(Cl)ccc32)c(OC)c1 (stereo not given)	19.9%	?
Cc1ccccc1-n1c(/C=C/c2ccccc2F)nc2ccccc2c1=O	?	?

The list continues.
SMILES	PMP22 txn	HTT prom inh
CN1CCN(c2csc3ccc(F)cc3c2=O)CC1	10.6%	4.2%
Nc1ccc(N)cc1	nt	-2.2%
Cc1ccc2nc(NC(=O)c3cccn(Cc4ccccc4F)c3=O)sc2c1	-11.3%	4.2%
O=C(Nc1ccc(Br)cc1C(=O)c1ccccc1Cl)c1ccccc1F	-22.7%	-11.0%
CC(NC(C)(C)C)C(=O)c1cccc(Cl)c1 (stereo not given)	nt	11.3%&-4.7%
Cc1cccc(CN2C(=O)CN=C(c3ccccc3Cl)c3cc(Cl)ccc32)c1	-15.6%	?
COC1=CC(C)=C[C@@H](C)[C@@H](O)[C@@H](C)CC(C)=CC=C[C@H](OC)[C@H]([C@@H](C)[C@@H](O)[C@H](C)[C@@]2(O)C[C@@H](O)[C@H](C)[C@@H](C(C)C)O2)OC1=O	nt	?
COc1ccc(NC(=O)CCc2nc(C3=CCN(Cc4cccc(Cl)c4)CC3)no2)c(OC)c1	?	?
Cc1cc(C)cc(OCC(=O)Nc2ccc(Cl)cc2C(=O)c2ccccc2)c1	?	-0.9%
O=C(N[C@@H]1N=C(c2ccccc2F)c2cccc3c2N(CC3)C1=O)c1cc2ccccc2[nH]1	nt	6.4%
Clc1cccc(SC2CCNCC2)n1	nt	3.2%
ClCCCN1CCN(c2cccc(Cl)c2)CC1	nt	-13.2%
Cc1ccccc1-n1nc(C)c2c1NC(=O)CSC2c1ccccc1C(F)(F)F (stereo not given)	?	?
C[C@]12CCC(=O)C=C1CC[C@@H]1[C@H]3CC[C@](C)(O)[C@@]3(C)CC[C@@H]12	nt	?
Cc1ccc(-n2c(/C=C/c3ccccc3)nc3ccccc3c2=O)cc1Cl	-8.0%	?
O=C(c1ccc2c(c1)N(Cc1ccc(F)cc1)C(=O)c1ccccc1S2)N1CCC2(CC1)OCCO2	-11.1%	-3.9%
CCN(CCO)CCn1c(Cc2ccccc2)nc2c1c(=O)n(C)c(=O)n2C	nt	8.8%
CC(CC(C#N)(c1ccccc1)c1ccccc1)N(C)C (stereo not given)	nt	-18.4%[116 µM]
C#CCN(C)[C@H](C)Cc1ccccc1	nt	5.1%&3.0%

Four of the compounds above, field by field:
> O=C(Nc1ccc(Br)cc1C(=O)c1ccccc1Cl)c1ccccc1F
  PMP22 txn: -22.7% | HTT prom inh: -11.0%

> CC(NC(C)(C)C)C(=O)c1cccc(Cl)c1 (stereo not given)
  PMP22 txn: nt | HTT prom inh: 11.3%&-4.7%

> Cc1cccc(CN2C(=O)CN=C(c3ccccc3Cl)c3cc(Cl)ccc32)c1
  PMP22 txn: -15.6% | HTT prom inh: ?

> COC1=CC(C)=C[C@@H](C)[C@@H](O)[C@@H](C)CC(C)=CC=C[C@H](OC)[C@H]([C@@H](C)[C@@H](O)[C@H](C)[C@@]2(O)C[C@@H](O)[C@H](C)[C@@H](C(C)C)O2)OC1=O
  PMP22 txn: nt | HTT prom inh: ?
